Source: PubChem BioAssay
FGF22 binding: binders of human FGF22 protein, primary screen, FGF22 synaptogenesis inhibitor project, biophysical, thermal shift, single point | Fibroblast growth factor 22 (Homo sapiens), Q9HCT0 | recombinant FGF22 thermal shift, SYPRO orange fluorescence; percent of sucrose octasulfate shift, DMSO zero | calls only at 9.99 µM | actives 1.5% (n = 340,000) | AID 651658, 2012;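 active = melting point raised past a set limit in the mean and every replicate; three in four hits are not shown here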
Target sequence (Q9HCT0 whole entry, looked up): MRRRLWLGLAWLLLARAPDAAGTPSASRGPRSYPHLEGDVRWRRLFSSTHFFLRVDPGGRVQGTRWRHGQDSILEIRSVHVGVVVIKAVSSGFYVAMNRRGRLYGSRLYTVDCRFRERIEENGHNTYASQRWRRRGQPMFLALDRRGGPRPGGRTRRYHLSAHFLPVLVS
rRNA inh HTS: reduced GFP signal of wild-type E. coli, primary screen, bacterial rRNA inhibitor project, GFP/RFP fluorescence, OD600, single point; actives 1.6% (n = 350,000); AID 720706, 2013; E. coli WT GFP vs humanized-ribosome RFP mutants, 24 h; stronger effect = lower value; DMSO median 0, no signal -100; GFP signal change (wild-type ribosome), % (no concentration beside the values);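 active = significant combined selectivity score with lowered wild-type GFP, culture density cut under 30%, mutant RFP and density less affected; inactive = any of these conditions unmet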; note: one replicate is shown; some compounds called inactive have numbers as strong as hits
AF4-AF9 inh: inhibitors of AF4 peptide binding to AF9, primary screen, biochemical, AlphaScreen, biotin-AF4 peptide, FLAG-AF9, single point | Protein AF-9 (Homo sapiens), P42568 | inhibition, % at 10 µM | actives 0.47% (n = 350,000) | AID 651704, 2012;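 active = every replicate reaching a set inhibition limit, whatever the replicate mean, cut at about 25% in these data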;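 note: 0% = plate neutral control median and 100% = total signal loss; the record names both 10 and 1 µM as test concentration; the first replicate is given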
Target sequence (P42568 whole entry, looked up): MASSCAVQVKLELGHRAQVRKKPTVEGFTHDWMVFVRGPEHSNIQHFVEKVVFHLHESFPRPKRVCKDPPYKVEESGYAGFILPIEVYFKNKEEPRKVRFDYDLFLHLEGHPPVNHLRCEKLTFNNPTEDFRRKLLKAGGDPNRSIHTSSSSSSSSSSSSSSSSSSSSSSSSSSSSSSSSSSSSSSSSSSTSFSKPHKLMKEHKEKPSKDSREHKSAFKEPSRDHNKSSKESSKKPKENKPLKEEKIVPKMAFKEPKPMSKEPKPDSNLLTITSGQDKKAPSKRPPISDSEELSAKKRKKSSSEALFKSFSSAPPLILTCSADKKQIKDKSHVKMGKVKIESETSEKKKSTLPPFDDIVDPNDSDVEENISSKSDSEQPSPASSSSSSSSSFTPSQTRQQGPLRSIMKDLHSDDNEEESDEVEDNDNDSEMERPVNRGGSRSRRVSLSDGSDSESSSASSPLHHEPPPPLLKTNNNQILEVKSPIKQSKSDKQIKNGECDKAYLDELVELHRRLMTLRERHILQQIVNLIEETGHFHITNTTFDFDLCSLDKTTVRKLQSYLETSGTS
rRNA inh HTS OD600: second read-out of rRNA inh HTS, no call of its own (marks repeat the call); OD600 change, %; measured here: OD600 growth;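 optical density of the mix in the first replicate; 0 = DMSO median and -100 = no signal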
rRNA inh HTS RFP: further read-out of rRNA inh HTS, marked with its call; RFP signal change, %; measured here: RFP humanized mutant strains;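 first replicate; 0 = DMSO median and -100 = no signal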
The depositor's hits bear a star; & = joins results of further samples. An excerpt, so the mix of outcomes need not match the whole.

Start of the data: the first 6 entries, to show the layout:
Screening CCCNC(=O)N1C[C@@H](O)COC[C@H]2O[C@@H](CC(=O)NCc3ccc(Cl)c(Cl)c3)CC[C@@H]21 returned FGF22 binding inactive, rRNA inh HTS -8.8, AF4-AF9 inh -3.7, rRNA inh HTS OD600 -11.1 and rRNA inh HTS RFP -4.7.
`OC[C@@H]1CN(Cc2ccc(Cl)cc2)C[C@H](n2cnc3c(NC4CC4)ncnc32)O1` gave FGF22 binding inactive, rRNA inh HTS -2.3, AF4-AF9 inh -2.9, rRNA inh HTS OD600 9.7 and rRNA inh HTS RFP -1.8.
`C[C@H]1CN([C@@H](C)CO)C(=O)CCCn2nncc2CO[C@@H]1CN(C)C(=O)Nc1ccc(N2CCN(C)CC2)cc1` gave FGF22 binding inactive, rRNA inh HTS -1.8&22.4, AF4-AF9 inh 5.9&7.7, rRNA inh HTS OD600 8.0&13.6 and rRNA inh HTS RFP -0.7&3.7.
Screening CO[C@H]1CN(C)C(=O)c2ccc(NC(=O)Nc3ccccc3)cc2OC[C@H](C)N(C(=O)CC2CC2)C[C@@H]1C returned FGF22 binding inactive, rRNA inh HTS -4.6, AF4-AF9 inh 1.4, rRNA inh HTS OD600 -10.0 and rRNA inh HTS RFP -1.3.
`CC=Cc1ccc2n(c1=O)C[C@H]1[C@H](CO)[C@@H](C(=O)N3CCCCC3)[C@@H]2N1CC1CCCC1` (mixture of isomers) gave FGF22 binding inactive, rRNA inh HTS 0.5, AF4-AF9 inh 1.7, rRNA inh HTS OD600 -3.1 and rRNA inh HTS RFP -0.5.
`C[C@@H]1CN([C@H](C)CO)C(=O)c2cc(NS(=O)(=O)c3ccccc3)ccc2O[C@H]1CN(C)Cc1ccc(C(F)(F)F)cc1` gave FGF22 binding inactive, rRNA inh HTS -2.9, AF4-AF9 inh 2.8, rRNA inh HTS OD600 0.0 and rRNA inh HTS RFP -1.1.

Results, repeating the preview:
Screening CCCNC(=O)N1C[C@@H](O)COC[C@H]2O[C@@H](CC(=O)NCc3ccc(Cl)c(Cl)c3)CC[C@@H]21 returned FGF22 binding inactive, rRNA inh HTS -8.8, AF4-AF9 inh -3.7, rRNA inh HTS OD600 -11.1 and rRNA inh HTS RFP -4.7.
`OC[C@@H]1CN(Cc2ccc(Cl)cc2)C[C@H](n2cnc3c(NC4CC4)ncnc32)O1` gave FGF22 binding inactive, rRNA inh HTS -2.3, AF4-AF9 inh -2.9, rRNA inh HTS OD600 9.7 and rRNA inh HTS RFP -1.8.
`C[C@H]1CN([C@@H](C)CO)C(=O)CCCn2nncc2CO[C@@H]1CN(C)C(=O)Nc1ccc(N2CCN(C)CC2)cc1` gave FGF22 binding inactive, rRNA inh HTS -1.8&22.4, AF4-AF9 inh 5.9&7.7, rRNA inh HTS OD600 8.0&13.6 and rRNA inh HTS RFP -0.7&3.7.
Screening CO[C@H]1CN(C)C(=O)c2ccc(NC(=O)Nc3ccccc3)cc2OC[C@H](C)N(C(=O)CC2CC2)C[C@@H]1C returned FGF22 binding inactive, rRNA inh HTS -4.6, AF4-AF9 inh 1.4, rRNA inh HTS OD600 -10.0 and rRNA inh HTS RFP -1.3.
`CC=Cc1ccc2n(c1=O)C[C@H]1[C@H](CO)[C@@H](C(=O)N3CCCCC3)[C@@H]2N1CC1CCCC1` (mixture of isomers) gave FGF22 binding inactive, rRNA inh HTS 0.5, AF4-AF9 inh 1.7, rRNA inh HTS OD600 -3.1 and rRNA inh HTS RFP -0.5.
`C[C@@H]1CN([C@H](C)CO)C(=O)c2cc(NS(=O)(=O)c3ccccc3)ccc2O[C@H]1CN(C)Cc1ccc(C(F)(F)F)cc1` gave FGF22 binding inactive, rRNA inh HTS -2.9, AF4-AF9 inh 2.8, rRNA inh HTS OD600 0.0 and rRNA inh HTS RFP -1.1.
`Cc1ccc(-c2ccc3c(c2)O[C@H](CN(C)Cc2ccc(F)cc2)[C@H](C)CN([C@H](C)CO)S3(=O)=O)cc1` gave FGF22 binding inactive, rRNA inh HTS 1.8, AF4-AF9 inh 3.6, rRNA inh HTS OD600 5.8 and rRNA inh HTS RFP -2.6.
For C[C@@H](NC(=O)C[C@@H]1CC[C@H](NC(=O)C2CCC2)[C@H](CO)O1)c1ccccc1 the results were FGF22 binding inactive, rRNA inh HTS 0.1, AF4-AF9 inh 0.6, rRNA inh HTS OD600 -3.0 and rRNA inh HTS RFP -0.8.
Screening C[C@H](CO)N1C[C@H](C)[C@H](CN(C)S(=O)(=O)c2ccccc2)OCCCC[C@H](C)Oc2ccc(NC(=O)Cc3ccccc3)cc2C1=O returned FGF22 binding inactive, rRNA inh HTS -0.3, AF4-AF9 inh 2.0, rRNA inh HTS OD600 3.1 and rRNA inh HTS RFP -0.9.
Screening O=C(C[C@H]1C=C[C@@H](NC(=O)Nc2cccc(F)c2)[C@@H](CO)O1)NCC1CC1 returned FGF22 binding inactive, rRNA inh HTS 0.8, AF4-AF9 inh -2.3, rRNA inh HTS OD600 -2.9 and rRNA inh HTS RFP 1.0.
COC(=O)C[C@@H]1CC[C@@H]2[C@H](COc3ccc(NC(=O)Nc4cccc(C)c4)cc3C(=O)N2C)O1 was read as FGF22 binding inactive, rRNA inh HTS -2.3, AF4-AF9 inh 4.8, rRNA inh HTS OD600 -15.7 and rRNA inh HTS RFP 2.3.
C[C@@H]1CN([C@H](C)CO)C(=O)c2ccccc2-c2ccccc2CO[C@H]1CN(C)C(=O)Nc1ccnc(N2CCOCC2)c1 was read as FGF22 binding inactive, rRNA inh HTS -0.3, AF4-AF9 inh 8.9, rRNA inh HTS OD600 0.9 and rRNA inh HTS RFP 0.1.
COCC(=O)Nc1ccc2c(c1)C(=O)N(C)C[C@H](OC)[C@H](C)CN(C(=O)NC(C)C)[C@H](C)CO2 was read as FGF22 binding inactive, rRNA inh HTS -0.5, AF4-AF9 inh -0.6, rRNA inh HTS OD600 -0.2 and rRNA inh HTS RFP 0.9.
`CC[N+]1(C)CC2CCC(C)(C1)C2(C)C` (stereo not given) gave FGF22 binding inactive, rRNA inh HTS 20.0, AF4-AF9 inh -0.3, rRNA inh HTS OD600 21.1 and rRNA inh HTS RFP 0.3.
Screening C[C@@H]1CCCCO[C@@H](CN(C)C)[C@H](C)CN([C@H](C)CO)C(=O)c2cc(NS(=O)(=O)c3ccc(Cl)cc3)ccc2O1 returned FGF22 binding inactive, rRNA inh HTS -0.1, AF4-AF9 inh 7.3, rRNA inh HTS OD600 1.1 and rRNA inh HTS RFP 1.1.
O=C(C[C@@H]1CC[C@H]2[C@@H](COC[C@H](O)CN2C(=O)c2ccccc2F)O1)NCc1ccc(Cl)c(Cl)c1 was read as FGF22 binding inactive, rRNA inh HTS 2.0, AF4-AF9 inh 3.4, rRNA inh HTS OD600 -11.2 and rRNA inh HTS RFP 29.8.
For Cc1ccccc1[C@H](NC1c2ccccc2C=Cc2ccccc21)P(=O)(c1ccccc1)c1ccccc1 the results were FGF22 binding inactive, rRNA inh HTS 13.6, AF4-AF9 inh 1.3, rRNA inh HTS OD600 10.0 and rRNA inh HTS RFP 2.8.
For COCC#Cc1ccc2c(c1)O[C@H](CN(C)CC1CCOCC1)[C@@H](C)CN([C@@H](C)CO)S2(=O)=O the results were FGF22 binding inactive, rRNA inh HTS -2.9, AF4-AF9 inh -3.9, rRNA inh HTS OD600 -4.9 and rRNA inh HTS RFP -0.7.
Screening Cc1ccccc1-c1ccc2c(c1)O[C@@H](CN(C)Cc1ccc(C(=O)O)cc1)[C@@H](C)CN([C@H](C)CO)S2(=O)=O returned FGF22 binding inactive, rRNA inh HTS -8.8, AF4-AF9 inh 3.2&2.3&-0.1, rRNA inh HTS OD600 -4.7 and rRNA inh HTS RFP -0.8.
Screening N#C[C@@H]1[C@H](c2ccc(C3=CCCC3)cc2)[C@H](CO)N1C(=O)c1ccccn1 returned FGF22 binding inactive, rRNA inh HTS 5.6, AF4-AF9 inh -1.7, rRNA inh HTS OD600 22.9 and rRNA inh HTS RFP -3.6.
For COc1ccccc1S(=O)(=O)N(C)C[C@H]1Oc2ncc(-c3ccc(C)cc3)cc2C(=O)N([C@H](C)CO)C[C@H]1C the results were FGF22 binding inactive, rRNA inh HTS -2.3, AF4-AF9 inh -3.2, rRNA inh HTS OD600 0.7 and rRNA inh HTS RFP 2.4.
For CO[C@H]1CN(C)C(=O)c2ccc(NC(=O)Nc3cccc(Cl)c3)cc2OC[C@H](C)N(C(=O)Nc2c(C)noc2C)C[C@H]1C the results were FGF22 binding inactive, rRNA inh HTS -4.3, AF4-AF9 inh 1.3, rRNA inh HTS OD600 -7.9 and rRNA inh HTS RFP 6.6.
Screening CCC(=O)N1CCC2(CC1)CN[C@H](CO)c1c2c2ccc(OC)cc2n1C returned FGF22 binding inactive, rRNA inh HTS 4.8, AF4-AF9 inh 0.1, rRNA inh HTS OD600 8.4 and rRNA inh HTS RFP -5.0.
Screening COc1cccc(S(=O)(=O)N[C@H]2CC[C@H](CC(=O)NCc3ccccc3)O[C@H]2CO)c1 returned FGF22 binding inactive, rRNA inh HTS 4.8, AF4-AF9 inh -0.8, rRNA inh HTS OD600 10.3 and rRNA inh HTS RFP -0.8.
For CCC(CC)CN1CCC(CN2C(=S)NC[C@@H]2[C@@H](C)CC)CC1 the results were FGF22 binding inactive, rRNA inh HTS 2.4, AF4-AF9 inh -1.1, rRNA inh HTS OD600 4.3 and rRNA inh HTS RFP -0.7.
Screening CCC(=O)N[C@H]1CC[C@@H](CC(=O)NCCN2CCCCC2)O[C@@H]1CO returned FGF22 binding inactive, rRNA inh HTS 2.9, AF4-AF9 inh -1.8, rRNA inh HTS OD600 6.8 and rRNA inh HTS RFP -0.8.
`CC(C)C#Cc1ccc([C@H]2[C@@H](CO)N(C(=O)C3CCOCC3)[C@H]2C#N)cc1` gave FGF22 binding inactive, rRNA inh HTS 7.7, AF4-AF9 inh 1.9, rRNA inh HTS OD600 18.7 and rRNA inh HTS RFP -1.3.
`C[C@@H]1CN([C@@H](C)CO)C(=O)c2cc(C#C[C@@H](C)O)cnc2O[C@H]1CN(C)C(=O)Nc1ccc(F)cc1` gave FGF22 binding inactive, rRNA inh HTS 2.8, AF4-AF9 inh -1.9, rRNA inh HTS OD600 12.8 and rRNA inh HTS RFP -3.6.
`Cc1cccc(C2=CC(=O)CC(C)(C)C2=O)c1` gave FGF22 binding inactive, rRNA inh HTS 13.6, AF4-AF9 inh 0.3, rRNA inh HTS OD600 7.5 and rRNA inh HTS RFP 1.7.
For COc1ccc(S(=O)(=O)Nc2ccc3c(c2)CC(=O)N([C@H](C)CO)C[C@H](C)[C@@H](CN(C)C(=O)Nc2c(C)noc2C)O3)cc1 the results were FGF22 binding inactive, rRNA inh HTS 3.6, AF4-AF9 inh -1.9, rRNA inh HTS OD600 9.1 and rRNA inh HTS RFP -2.4.
Screening CCc1cc2c(nc1CC)CCCN2CCOC returned FGF22 binding inactive, rRNA inh HTS 9.7, AF4-AF9 inh -2.8, rRNA inh HTS OD600 5.9 and rRNA inh HTS RFP 8.6.
Screening CC(NC(=O)C1=CC=CN2CCS(=O)(=O)N=C12)c1ccc(Cl)cc1Cl (stereo not given) returned FGF22 binding inactive, rRNA inh HTS -0.5, AF4-AF9 inh 0.7, rRNA inh HTS OD600 -13.6 and rRNA inh HTS RFP -1.2.
Screening CC(=O)N(C)C[C@H]1Oc2cc(C#CC3CCCC3)ccc2S(=O)(=O)N([C@H](C)CO)C[C@H]1C returned FGF22 binding inactive, rRNA inh HTS 3.9, AF4-AF9 inh 1.0, rRNA inh HTS OD600 -1.0 and rRNA inh HTS RFP 6.0.
Screening COc1cc(NC(=O)c2cc(=O)[nH]c3ccc(S(=O)(=O)N4CCOCC4)cc23)cc(OC)c1 returned FGF22 binding inactive, rRNA inh HTS 7.6, AF4-AF9 inh -7.8, rRNA inh HTS OD600 12.8 and rRNA inh HTS RFP 0.1.
`C[C@H]1CCCCO[C@@H](CN(C)C(=O)Nc2ccc3c(c2)OCO3)[C@@H](C)CN([C@@H](C)CO)C(=O)c2cc(NS(=O)(=O)c3cccs3)ccc2O1` gave FGF22 binding inactive, rRNA inh HTS -1.4, AF4-AF9 inh 3.8, rRNA inh HTS OD600 9.8 and rRNA inh HTS RFP 1.7.
For COc1ccccc1CNC(=O)C[C@@H]1CC[C@@H](NC(=O)CC2CC2)[C@H](CO)O1 the results were FGF22 binding inactive, rRNA inh HTS 0.5, AF4-AF9 inh -2.5, rRNA inh HTS OD600 -4.6 and rRNA inh HTS RFP -0.2.
For C[C@@H]1CN([C@H](C)CO)C(=O)Cc2cc(NC(=O)CCC(F)(F)F)ccc2O[C@H]1CN(C)S(=O)(=O)c1ccc(F)cc1 the results were FGF22 binding inactive, rRNA inh HTS 1.1, AF4-AF9 inh -3.3, rRNA inh HTS OD600 3.0 and rRNA inh HTS RFP -2.0.
Screening C[C@H]1CN([C@@H](C)CO)S(=O)(=O)c2ccc(C#Cc3ccc(F)cc3)cc2O[C@@H]1CN(C)C(=O)NC1CCCCC1 returned FGF22 binding inactive, rRNA inh HTS -0.3, AF4-AF9 inh 1.3, rRNA inh HTS OD600 13.8 and rRNA inh HTS RFP -1.2.
